Source: PubChem (The Scripps Research Institute Molecular Screening Center)
OX1R antagonist: OX1R (HCRTR1) antagonists, primary screen, fluorescence, CHO/OX1R cells, Fluo-8 calcium, orexin A | Orexin/Hypocretin receptor type 1 (Homo sapiens), O43613 | Fluo-8 calcium fluorescence | inhibition, % at 5 µM | 330,000 tested, 0.43% active;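 active = inhibition above its plate's threshold, mean inhibition of all tested compounds on the plate plus 3 SD, cut at about 37% in these data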;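 note: 0% = orexin A challenge wells and 100% = SB-334867-A antagonist wells; not every result past the cut was called active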
Target sequence (O43613 whole entry, looked up): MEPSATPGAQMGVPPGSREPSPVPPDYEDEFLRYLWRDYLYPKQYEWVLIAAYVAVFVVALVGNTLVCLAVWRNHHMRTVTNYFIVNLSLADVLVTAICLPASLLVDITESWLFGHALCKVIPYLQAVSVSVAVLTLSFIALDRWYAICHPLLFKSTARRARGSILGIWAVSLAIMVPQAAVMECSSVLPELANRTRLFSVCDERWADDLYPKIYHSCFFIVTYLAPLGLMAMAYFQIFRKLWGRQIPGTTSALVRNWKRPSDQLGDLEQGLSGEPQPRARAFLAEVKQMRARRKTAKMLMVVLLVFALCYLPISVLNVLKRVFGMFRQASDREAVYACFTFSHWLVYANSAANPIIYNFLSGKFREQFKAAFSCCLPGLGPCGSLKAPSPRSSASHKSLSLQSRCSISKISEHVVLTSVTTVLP
Numbers without * were called inactive.

Results for OCCOCCn1c(C(CO)Nc2nc(-c3ccc(F)cc3)cs2)nc2ccccc21 (configuration not stated) ?
OX1R antagonist: 3

How did O=C(CCN1CCCCO1)N1CCCC(Nc2ccc(F)c(F)c2)C1 (configuration not stated) do in these assays?
OX1R antagonist: -13

What do the screens show for `CC(=O)Nc1sc(N/N=C/c2ccccc2F)nc1-c1ccc(C)cc1`?
OX1R antagonist: -20

How did O=C(Nc1ccc(-c2cnco2)cc1)c1ccc(F)cc1F do in these assays?
OX1R antagonist: -18

Results for CCOc1ncccc1C(=O)OCC(=O)Nc1cc(S(=O)(=O)N2CCOCC2)ccc1C ?
OX1R antagonist: -24

How did Cc1ccc(S(=O)(=O)CC(=O)Nc2ccccn2)cc1 do in these assays?
OX1R antagonist: -13

What do the screens show for `COC(Cn1cc(C)c(=O)[nH]c1=O)OC`?
OX1R antagonist: -6

What do the screens show for `O=C(Nc1ccc(N2CCN(C(=O)c3cccs3)CC2)cc1)c1cccc(F)c1`?
OX1R antagonist: -14

Results for N#CC(c1nc2ccccc2nc1N1CCOCC1)S(=O)(=O)c1ccccc1 (configuration not stated) ?
OX1R antagonist: -13

Results for c1ccc(SCc2nc(-c3ccccn3)no2)cc1 ?
OX1R antagonist: -9

How did Oc1cc(O)c2c(c1)O[C@H](c1ccc(O)c(O)c1)[C@@H](O)C2 do in these assays?
OX1R antagonist: -2

How did COc1ccccc1-n1c(SCC(=O)N2CCCCC2)nc2cccnc21 do in these assays?
OX1R antagonist: -31

What do the screens show for `Cc1cccc(OCc2nnc(SCC(=O)N3CCCCC3)o2)c1`?
OX1R antagonist: -22

What do the screens show for `CCOCC(=O)Nc1ccccc1C(=O)N1CCOCC1`?
OX1R antagonist: 7

How did COC(=O)c1cc(=O)nc2sc(-c3cccs3)nn12 do in these assays?
OX1R antagonist: -9

What do the screens show for `COC(=O)COc1c(Cl)cc(Cl)c2ccc(C)nc12`?
OX1R antagonist: -4

Results for NS(=O)(=O)c1ccccc1 ?
OX1R antagonist: 0

What do the screens show for `Cc1ccc(/C=N/NC(=O)Cn2nc(C)c(Br)c2C)o1`?
OX1R antagonist: -7

Results for C=CCNC(=S)NNC(=O)COc1ccc(Br)cc1 ?
OX1R antagonist: 9

What do the screens show for `CC(C)CSc1n[nH]c(N)n1`?
OX1R antagonist: 4

Results for Cc1ccc([N+](=O)[O-])cc1S(=O)(=O)Nc1ccc(OCC(=O)N2CCOCC2)cc1 ?
OX1R antagonist: -11

How did COc1ccccc1C(=O)N/C(=C\c1cn(S(=O)(=O)N(C)C)c2ccccc12)C(=O)N1CCCCC1 do in these assays?
OX1R antagonist: -28

Results for CC(C)OC(=O)C1CC=CCC1C(=O)Nc1ccc(Cl)cc1 (configuration not stated) ?
OX1R antagonist: -22

What do the screens show for `COc1ccccc1N1CCN(C(=O)c2onc(C)c2Cl)CC1`?
OX1R antagonist: -16

What do the screens show for `CCOc1ccc(N=C2SCCCN2C(=O)c2c(CC)noc2C)cc1`?
OX1R antagonist: 5

Results for Cc1ccc(NNC(=O)c2c(C)noc2C)cc1Cl ?
OX1R antagonist: -8

What do the screens show for `CCc1nc2ccccc2c(C(=O)Nc2cc(C)ccc2C)c1C`?
OX1R antagonist: -37

What do the screens show for `O=C(NC1CCCCC1)C1(S(=O)(=O)c2ccc(Cl)cc2)CC1`?
OX1R antagonist: -10

How did C[C@H]1C[C@H]2[C@@H]3CCC4=CC(=O)C=C[C@]4(C)[C@@]3(F)[C@@H](O)C[C@]2(C)[C@@]1(O)C(=O)CO do in these assays?
OX1R antagonist: -9

How did Cc1ccc(S(=O)(=O)NCCc2cc3ccc(C)cc3[nH]c2=O)cc1 do in these assays?
OX1R antagonist: -19

What do the screens show for `Cn1c(=O)c(-c2cc(=O)[nH][nH]2)c(O)c2ccccc21`?
OX1R antagonist: -11

What do the screens show for `O=C(COC(=O)CN1C(=O)c2ccccc2C1=O)NC1CCCCC1`?
OX1R antagonist: -17

Results for CCC1S/C(=N/C(=O)NC2CCCCC2)NC1=O (configuration not stated) ?
OX1R antagonist: -8

Results for Cc1cc(C)c(C#N)c(Nc2ccc(F)cc2)n1 ?
OX1R antagonist: -8

Results for Cc1ccccc1OCCNC(=O)/C=C/c1ccccc1 ?
OX1R antagonist: -32

How did COc1ccccc1CCC(=O)N1CCC(n2nccc2NC(=O)CC(C)C)CC1 do in these assays?
OX1R antagonist: -18

Arranged by molar mass (smallest number first): part of the list above.
What do the screens show for `CC(C)CSc1n[nH]c(N)n1`?
OX1R antagonist: 4

What do the screens show for `COC(Cn1cc(C)c(=O)[nH]c1=O)OC`?
OX1R antagonist: -6

What do the screens show for `Cn1c(=O)c(-c2cc(=O)[nH][nH]2)c(O)c2ccccc21`?
OX1R antagonist: -11

Results for CCC1S/C(=N/C(=O)NC2CCCCC2)NC1=O (configuration not stated) ?
OX1R antagonist: -8

Results for Cc1ccc(NNC(=O)c2c(C)noc2C)cc1Cl ?
OX1R antagonist: -8

What do the screens show for `CCOCC(=O)Nc1ccccc1C(=O)N1CCOCC1`?
OX1R antagonist: 7

What do the screens show for `CCc1nc2ccccc2c(C(=O)Nc2cc(C)ccc2C)c1C`?
OX1R antagonist: -37

Results for CC(C)OC(=O)C1CC=CCC1C(=O)Nc1ccc(Cl)cc1 (configuration not stated) ?
OX1R antagonist: -22

What do the screens show for `O=C(NC1CCCCC1)C1(S(=O)(=O)c2ccc(Cl)cc2)CC1`?
OX1R antagonist: -10

Results for C=CCNC(=S)NNC(=O)COc1ccc(Br)cc1 ?
OX1R antagonist: 9

What do the screens show for `CCOc1ccc(N=C2SCCCN2C(=O)c2c(CC)noc2C)cc1`?
OX1R antagonist: 5

Results for N#CC(c1nc2ccccc2nc1N1CCOCC1)S(=O)(=O)c1ccccc1 (configuration not stated) ?
OX1R antagonist: -13

How did COc1ccccc1C(=O)N/C(=C\c1cn(S(=O)(=O)N(C)C)c2ccccc12)C(=O)N1CCCCC1 do in these assays?
OX1R antagonist: -28

Later entries.
Results for Cc1nc(C(F)(F)F)c(C(=O)N/N=C(\N)c2cccnc2)s1 ?
OX1R antagonist: -9

Results for c1ccc(CN=C2NN=C(c3cc4ccccc4o3)CS2)cc1 ?
OX1R antagonist: -18

Results for CN1CCN(C(=S)c2ccc(N(C)C)cc2)CC1 ?
OX1R antagonist: -6

What do the screens show for `CCCC(NC(=O)CNC(=O)C(C)(C)C)C(=O)O` (configuration not stated)?
OX1R antagonist: -12

How did NNC(=O)/C=C/c1ccc(Cl)cc1Cl do in these assays?
OX1R antagonist: -10

How did O=[N+]([O-])c1ccc2[nH]c3c(c2c1)CCCC3O (configuration not stated) do in these assays?
OX1R antagonist: -1

What do the screens show for `N#Cc1c(-c2ccccc2)nc(SCc2ccc([N+](=O)[O-])cc2)[nH]c1=O`?
OX1R antagonist: -18

How did CC(C(=O)N1CCN(c2ccc([N+](=O)[O-])cc2)CC1)N1C(=O)C2CC=CCC2C1=O (configuration not stated) do in these assays?
OX1R antagonist: 1

Results for O=C(CS(=O)(=O)c1ccc(Cl)cc1)Nc1nnc(-c2cccs2)o1 ?
OX1R antagonist: 0

How did COc1ccccc1/C=C1\SC(=S)N(CCC(=O)Nc2ccc(C(=O)O)c(O)c2)C1=O do in these assays?
OX1R antagonist: -19

Results for CCOc1ccc(NC(=O)Nc2cc(C(C)C)c(O)cc2C)cc1 ?
OX1R antagonist: -13

How did CCOC(=O)c1nc2cc3n(c(C)c-2c1C)C(C)C(CC)=C3C (configuration not stated) do in these assays?
OX1R antagonist: -16

Results for CC(C)NC(=S)N/N=C/c1sc(N2CCCCC2)nc1-c1cccs1 ?
OX1R antagonist: -28

How did Cn1c(=O)[nH]c2sc3c(c2c1=O)CC(C)(C)OC3 do in these assays?
OX1R antagonist: -1

What do the screens show for `O=C(CC1C(=O)NCCN1Cc1ccc(Cl)c(F)c1)NC1CCC1` (configuration not stated)?
OX1R antagonist: -7

Results for COc1ccc(-c2noc(CCC(=O)NC3CCN(Cc4ccccc4)CC3)n2)cc1 ?
OX1R antagonist: -25

What do the screens show for `COC(=O)c1sccc1NC(=O)Nc1ccc(F)cc1`?
OX1R antagonist: -35

What do the screens show for `C=CCn1c(COc2ccc(OC)cc2)nc2ccccc21`?
OX1R antagonist: -19

Results for CCC1CCCCN1CCCNC(=O)CSc1nc2nc(C)c(Cc3ccccc3Cl)c(C)n2n1 (configuration not stated) ?
OX1R antagonist: -10

Results for COCCNC(=O)C1CC(=O)N(CCc2ccccc2)C1 (configuration not stated) ?
OX1R antagonist: -12

What do the screens show for `Cc1ccc(CN2CCc3[nH]c(=O)[nH]c(=O)c3C2)cc1`?
OX1R antagonist: -4

Results for O=C(NC(=O)c1ccccc1)NC1(C(F)(F)F)OCCO1 ?
OX1R antagonist: 4

What do the screens show for `O=C(Nc1nc(N2C(=O)c3ccccc3C2=O)n(-c2ccccc2)n1)c1ccc(Cl)cc1`?
OX1R antagonist: 0

How did COc1ccccc1N1C(=O)c2ccccc2NC1C(OC)OC (configuration not stated) do in these assays?
OX1R antagonist: -4

What do the screens show for `COc1ccc(OCC(O)CN(C)C(=O)C(C)Oc2ccccc2)cc1` (configuration not stated)?
OX1R antagonist: -15

What do the screens show for `C#CCOCCOCCOCCNc1nc(N2CCN(C(=O)[C@H](C(C)C)n3cc(CCO)nn3)CC2)nc(N2CCN(C(=O)[C@H]([C@@H](C)CC)n3cc(CCCCN)nn3)CC2)n1`?
OX1R antagonist: 2

Results for COc1ccc(OC)c(NC(=O)c2ccc3c(c2)OCO3)c1 ?
OX1R antagonist: -19

What do the screens show for `Cn1cnc([N+](=O)[O-])c1Nc1ccc(O)cc1`?
OX1R antagonist: 0

Results for Cc1cc(C(=O)OCC(=O)c2c(N)n(C)c(=O)n(C)c2=O)c(C)o1 ?
OX1R antagonist: 2

How did Cc1onc(-c2ccccc2Cl)c1C(=O)NCCn1ccc2ccccc21 do in these assays?
OX1R antagonist: 20

How did COc1ccc2cc(C)c3nnc(SCC(=O)Nc4nc(-c5ccccc5)cs4)n3c2c1 do in these assays?
OX1R antagonist: -26

What do the screens show for `COc1cccc(C(=O)N2CCCC(Nc3ccc(C)c(C)c3)C2)c1` (configuration not stated)?
OX1R antagonist: -10

What do the screens show for `Cc1ccc2nc(SCC(=O)NCc3ccc(S(N)(=O)=O)cc3)[nH]c2c1`?
OX1R antagonist: -9

Results for N#Cc1nc(-c2cccs2)oc1NCCN1CCOCC1 ?
OX1R antagonist: -10

How did CC(=O)c1cccc(NC(=O)c2cc3nc(C)cc(C)n3n2)c1 do in these assays?
OX1R antagonist: -8

Results for CCN(CC)c1ccc2ccc(=O)oc2c1 ?
OX1R antagonist: -6

How did COc1cc2cc(CN(CCCO)S(=O)(=O)c3ccccc3Cl)c(=O)[nH]c2cc1OC do in these assays?
OX1R antagonist: -13

Results for CC(C)c1ccc(CC(C)C2C3=C(CCCC3=O)OC3=C2C(=O)CCC3)cc1 (configuration not stated) ?
OX1R antagonist: -18

What do the screens show for `CC1=C(C(=O)OCCOC(C)C)C(c2cc3c(cc2Br)OCO3)C2=C(CCCC2=O)N1` (configuration not stated)?
OX1R antagonist: -19

What do the screens show for `CCCC(c1nnnn1Cc1ccc2c(c1)OCO2)N1CCC(C(N)=O)CC1` (configuration not stated)?
OX1R antagonist: -18

Results for COc1cccc(OC)c1C(=O)Nc1nc2ccc([N+](=O)[O-])cc2s1 ?
OX1R antagonist: 8

How did COc1cc(S(=O)(=O)NCc2ccccc2)ccc1Br do in these assays?
OX1R antagonist: -12

How did CCn1cc([C@@H]2C[C@H]3CN(Cc4cccc(Cl)c4)C(=O)[C@]34CCCN24)c(C)n1 do in these assays?
OX1R antagonist: -12

Results for COc1ccc(NC(=O)CCNS(=O)(=O)c2cccc3nonc23)cc1Cl ?
OX1R antagonist: -17

How did O=C(Nc1cc(N2CCOCC2)ncn1)c1ccc(F)cc1 do in these assays?
OX1R antagonist: -13

What do the screens show for `CCOC(=O)C1(Cc2ccccc2C)CCCN(C(=O)c2ccc(CSC)o2)C1` (configuration not stated)?
OX1R antagonist: -13

How did COC(C(=O)NNC(=O)Cc1ccc(Cl)cc1)c1ccccc1 (configuration not stated) do in these assays?
OX1R antagonist: -34

How did CCOc1ccc(-c2csc(NC(=O)c3ccc(S(=O)(=O)N4CCc5ccccc5C4)cc3)n2)cc1 do in these assays?
OX1R antagonist: -8

How did CC(C)C(C(=O)NCc1ccco1)N(C(=O)CNS(=O)(=O)c1ccc(Cl)cc1)C1CCCC1 (configuration not stated) do in these assays?
OX1R antagonist: -34

How did CC(=O)c1cc(C#N)c(NCc2cc(-c3ccccc3)no2)nc1C do in these assays?
OX1R antagonist: -19

What do the screens show for `O=C(COc1nncc2ccccc12)Nc1ccc(Br)cc1F`?
OX1R antagonist: -4

How did C=CCNC(=O)c1onc(CSc2cc(C)ccc2C)c1C(=O)O do in these assays?
OX1R antagonist: 0

Results for c1ccc(N2CCN(c3cnc4ccccc4n3)CC2)cc1 ?
OX1R antagonist: -23

How did Cc1csc(NC(=O)CCCc2cccs2)n1 do in these assays?
OX1R antagonist: -12

Results for COc1cc(OC)cc(C(=O)NCCOC23CC4CC(CC(C4)C2)C3)c1 ?
OX1R antagonist: -10

What do the screens show for `N#Cc1c(N)c(C(=O)c2ccccc2)n2c1CCC2`?
OX1R antagonist: -27

Results for O=C(OCC(=O)N1CCCc2ccccc21)c1cccnc1Cl ?
OX1R antagonist: -16

Results for CCCc1cc(=O)n2[nH]c(-c3ccc(OC)cc3)nc2n1 ?
OX1R antagonist: 2

Results for COc1ccccc1NC(=O)CC(=O)Nc1ccccc1OC ?
OX1R antagonist: -21

What do the screens show for `COc1cc(C#N)c(NC(=O)CN2CCN(CCO)CC2)cc1OC`?
OX1R antagonist: -3

How did O=C(O)c1cc(NN=C2c3ccccc3-c3ccccc32)ccc1Cl do in these assays?
OX1R antagonist: -11

How did O=C(Nc1ccccc1)Nc1cccn(Cc2c(F)cccc2Cl)c1=O do in these assays?
OX1R antagonist: -4

Results for COc1ccccc1NS(=O)(=O)c1cccc(N=C2N=C(N)c3ccccc32)c1 ?
OX1R antagonist: -10

Results for CC(=O)NCCC(=O)N1CCCC(N(C)CCc2ccccc2)C1 (configuration not stated) ?
OX1R antagonist: -13

This is a subset; most or all hits stand in other tables.
